High-throughput results from PubChem.
Cruzain noTriton: qHTS Assay for Promiscuous and Specific Inhibitors of Cruzain (without detergent) | purified cruzain, Z-FR-AMC fluorescence, no detergent | AID 1476, 2009 | 2.3% of 200,000 active | Cruzipain (Trypanosoma cruzi), P25779 | Potency, µM, inactives show max response, negative = inhibition, hits mostly inhibitors;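 note: plate controls were enzyme without inhibitor for no effect and buffer without enzyme for full effect; nearly all actives have a fitted effect of over 40% in size; top concentration of the series not given in the record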
Target sequence (P25779 123-467 limits assumed): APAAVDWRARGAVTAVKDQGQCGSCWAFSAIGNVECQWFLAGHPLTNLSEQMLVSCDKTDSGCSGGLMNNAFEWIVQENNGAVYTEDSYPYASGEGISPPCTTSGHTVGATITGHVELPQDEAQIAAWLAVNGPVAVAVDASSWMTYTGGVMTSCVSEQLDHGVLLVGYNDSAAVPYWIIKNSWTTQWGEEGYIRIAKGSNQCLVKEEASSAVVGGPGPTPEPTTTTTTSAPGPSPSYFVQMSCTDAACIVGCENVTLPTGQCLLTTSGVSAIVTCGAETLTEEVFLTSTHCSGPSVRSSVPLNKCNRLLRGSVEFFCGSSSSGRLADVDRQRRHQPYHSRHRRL
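Purified cruzain at 1.5 nM, pre-incubated 15 min with compound at room temperature in 100 mM sodium acetate pH 5.5, 5 mM DTT, 0.00005% Triton X-100. Reaction started with 2 uM Z-FR-AMC; AMC fluorescence increase over 60 s gives rate.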
SARS PLP yeast: qHTS of Yeast-based Assay for SARS-CoV PLP; Potency, µM (series often up to 32.9 µM), without a hit: at the top dose activity, positive = growth rescue; S. cerevisiae expressing SARS-CoV PLpro, growth rescue; control for the full effect not named in the record; AID 485353, 2010; 0.19% of 330,000 active; active means well fitted rising curve with a large enough effect; inconclusive means small, poorly fitted or top-dose-only effect; inactive means no such curve, though single readings can be large or run the other way; note: 0% is about no effect; nearly all actives have a fitted effect of over 55% in size; growth read by luminescence after 48 h
Marburg entry inh: qHTS for inhibitors of binding or entry into cells for Marburg Virus; Potency, µM (highest dose often 37.8 µM), for the others: at the highest dose activity change, negative = inhibition, usual class: inhibitors; Marburg virus pseudotyped entry inhibition, cell reporter; control for the full effect not named in the record; about a third of the inactives were read at about 46 µM; 1.8% of 300,000 active; active = well fitted inhibition curve with a large enough effect; inconclusive = small, poorly fitted or top-dose-only effect, or effect the other way; inactive = flat fitted curve, though single readings scatter; tested in HEK293 cells; about a fifth of its hits are not listed in these tables; note: % is set by controls: 0 for no effect and ±100 for the full control effect; luciferase read-out
NS1 inh: qHTS Assay for Inhibitors of Influenza NS1 Protein Function; S. cerevisiae slowed by influenza A NS1, growth recovery by OD600; Potency, µM (doses to about 46.1 µM), for the others: at the highest dose activity, positive = more growth; 0.4% of 270,000 active; active means well fitted rising curve with a large enough effect; inconclusive means small, poorly fitted or top-dose-only effect; inactive means no such curve, though single readings can be large or run the other way; note: nearly all actives have a fitted effect of over 50% in size
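Read-out: OD600 growth recovery of NS1-expressing budding yeast. Cells grown overnight at 30C in -URA glucose medium, washed, resuspended and diluted 1:100 in 2% galactose assay medium, pH 6.0. Same strain lacking NS1 served as positive control.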
RE007 growth inh: qHTS Assay for Inhibitors of the HIV-1 protein Vpr. S. pombe RE007 Vpr strain, BacTiter-Glo ATP luminescence, 24 h; control for the full effect not named in the record. AID 651644, 2012. Potency, µM (series often up to 92.2 µM), for inactives: at the top dose activity change, negative = less growth. 0.21% of 360,000 active; active = well fitted falling curve with a large enough effect; inconclusive = small, poorly fitted or top-dose-only effect; inactive = no such curve, though single readings can be large or run the other way;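 note: % is set by controls: 0 for no effect and ±100 for the full control effect; nearly all actives have a fitted effect of over 50% in size; the assay follows cell death caused by Vpr and the record does not say whether a fall means rescue or toxicity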
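Fission yeast RE007 carrying one integrated HIV-1 vpr copy, seeded at OD 0.01 in PMG+AL medium with 23 nL pinned compound. Grown 24 h at 30 degrees; viability read by BacTiter-Glo luminescence after 5 min.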
StopGo reporter: High Throughput Screening for Foot and Mouth Disease Virus Antivirals; human cells with a luciferase reporter of 2A StopGo recoding; control for the full effect not named in the record; Potency, µM (series often up to 57.9 µM), for the others: top-dose signal change, negative = less light; 1.2% of 410,000 active; active = well fitted falling curve with a large enough effect; inconclusive = small, poorly fitted or top-dose-only effect; inactive = no such curve, though single readings can be large or run the other way; tested in HEK293T cells; note: % is set by controls: 0 for no effect and ±100 for the full control effect; nearly all actives have a fitted effect of over 45% in size; luciferase light after 4 h
Cruzain inh Det: qHTS Assay for Promiscuous and Specific Inhibitors of Cruzain (with detergent); Cruzipain (Trypanosoma cruzi), P25779; purified cruzain, Z-FR-AMC fluorescence, 0.01% Triton; Potency, µM, for inactives: max response, negative = inhibition, hits mostly inhibitors; 0.43% of 200,000 active; AID 1478, 2009;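 note: plate controls were neutral wells for no effect and buffer without enzyme for full effect; nearly all actives have a fitted effect of over 40% in size; top concentration of the series not given in the record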
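Enzyme 1.5 nM, Z-FR-AMC 2 uM, NaOAc 100 mM pH 5.5, DTT 5 mM, Triton X-100 0.01%; 15 min RT compound preincubation; kinetic ex360/em450, 60 s delta.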
LASV entry inh: qHTS for Inhibitors of binding or entry into cells for Lassa Virus; 1.2% of 300,000 active; AID 540256, 2011; Lassa virus pseudotype entry inhibition, cell reporter; control for the full effect not named in the record; Potency, µM (series often up to 37.9 µM), for the others: top-dose activity change, negative = inhibition, most hits filed as inhibitors; active means well fitted inhibition curve with a large enough effect; inconclusive means small, poorly fitted or top-dose-only effect, or effect the other way; inactive means flat fitted curve, though single readings scatter; tested in HEK293 cells; note: % is set by controls: 0 for no effect and ±100 for the full control effect; nearly all actives have a fitted effect of over 50% in size; luciferase read-out
* hit, by the source's call; u = inconclusive; x = no result given; & = joins results of further samples; [ ] = dose if it differs, or a comment. Unless noted, calls come from the whole dose curve; as a rule, active = well fitted curve in the direction sought with a large enough effect; inconclusive = small, poorly fitted or top-dose-only effect, or another doubt; inactive = no such curve, though single readings can be large; an effect the other way counts as inactive or inconclusive. Potency is the fitted concentration of half-maximal effect.

Each structure is followed by: Marburg entry inh, SARS PLP yeast, NS1 inh, Cruzain inh Det, RE007 growth inh, LASV entry inh, Cruzain noTriton, StopGo reporter
1	O=C1CCCC/C1=C\Nc1ccccc1C(=O)O
  2%, -2%, -1%, 1.4%, 2%, 3%, -6%, 15%
2	CC1CCCCN1C/C=C/c1ccccc1[N+](=O)[O-] (configuration not stated)
  2%, 2%, -3%, 1.1%, -1%, -27%[14.3 µM], -4%, -11%
3	COc1cccc(Nc2nnc(SCC(=O)N3CCOCC3)s2)c1
  23%, -2%, -7%, -3.7%, -17%, 29%, -26%, 41%[activator]
4	CCN(CC(=O)Nc1ccc2c(c1)OCCO2)CC(=O)Nc1ccc2c(c1)OCO2
  -6%[46.1 µM], 3%, x, x, -5%, 15%, x, 9%
5	Cc1cnc(NS(=O)(=O)c2ccccc2)c(Br)c1
  2%[46.1 µM], 0%, -7%, x, -6%, -15%, x, 6%
6	COc1ccc(C(=O)CC(=O)C(=O)Nc2ccc(C)cc2Cl)cc1
  u, 1%, 3%, x, -2%, u, x, -17%
7	COc1ccc(S(=O)(=O)NCC(=O)N(CC(=O)NCC2CCCO2)Cc2ccccc2)cc1 (configuration not stated)
  -17%[46.1 µM], -1%, 2%, x, 36%, 16%, x, 12%
8	CNC(=O)CSc1ncnc2c1cnn2-c1ccccc1
  4%[46.1 µM], -1%, x, x, 21%, -11%, x, 18%
9	O=C(CSc1cccc[n+]1[O-])Nc1ccc2c(c1)OCCO2
  24%[46.1 µM], -3%, 0%, x, 1%, u, x, 45%[activator]
10	CCOC(=O)C1=C(C)NC2=C(C(=O)C(C(=O)OCC)C(c3ccc(OC)cc3)C2)C1c1ccccn1 (configuration not stated)
  -9%, 6%, -8%, 1.7%, 2%, u, u, -22%
11	CC(=O)c1ccc(NC(=O)CSc2ccc(-c3ccco3)nn2)cc1
  3%, -1%, -2%, x, 1%, 1%, x, 4%
12	Cc1ccnc(N2CCCC(C(=O)Nc3ccc(C)c(C)c3)C2)n1 (configuration not stated)
  6%[46.1 µM], 0%, -2%, x, 8%, 1%[46.1 µM], x, -4%
13	CC1=CC(=C(C#N)C#N)c2ccccc2N1C
  22%[46.1 µM], 1%, x, x, 6%, 6%[46.1 µM], x, 2%
14	CC(=O)c1c(C)[nH]c(C(=O)COC(=O)Cc2ccccc2F)c1C
  u, 14%, x, x, -4%, 9%, x, 25%
15	CC12CCC(c3c(C(=O)O)nn(-c4ccccc4)c31)C2(C)C (configuration not stated)
  2%, -5%, 9%, 2.2%, 1%, 3%, -7%, x
16	CCOC(=O)C(O)(c1ccc(NC(=S)NC(=O)c2ccc(Cl)cc2Cl)c(C)c1)C(F)(F)F (configuration not stated)
  u, -45%, 7%, -4.4%, -8%, 10µM*, 0%, u
17	Cc1nc2nc(SCC(=O)NCCCN3CCCCCC3)nn2c(C)c1Cc1ccccc1Cl
  x, -1%, 1%, x, -7%, x, x, 4%
18	Cc1onc(-c2ccccc2)c1C(=O)NC1CC1
  -2%[46.1 µM], 1%, x, x, -1%, 6%, x, -12%
19	CCc1ccc(NC(=O)c2ccc3c(c2)N(Cc2ccc(C)cc2)CCS3)cc1
  -11%[46.1 µM], x, x, -5.5%, x, -11%[46.1 µM], 16µM*, 58%[activator]
20	COC(=O)c1ccc(NC(=O)CCc2c(C)nc3c(c2C)c(=O)n(C)c(=O)n3C)cc1
  -8%[46.1 µM], x, x, -1.2%, x, -1%[46.1 µM], -2%, 11%
21	CCn1c(SCC(=O)Nc2cc(NC(C)=O)ccc2OC)nnc1-c1ccncc1
  4%, 9%, 4%, 3.2%, x, x, -18%, x
22	COc1ccc(C(C)NC(=O)C2CCCC2)cc1OC (configuration not stated)
  -15%[46.1 µM], -5%, 15%, x, 6%, 6%[46.1 µM], x, -7%
23	CCC(CC)NC(=O)Nc1ccccc1C(F)(F)F
  x, 2%, 1%, x, -8%, x, x, -17%
24	CCN(CC)S(=O)(=O)c1cccc(C(=O)N/N=C2\CCCC(=O)C2)c1
  x, 0%, 1%, x, -7%, x, x, -4%
25	O=C(O)Cn1ncc2ccccc2c1=O
  -23%[46.1 µM], -1%, 4%, x, -4%, -1%, x, 3%
26	O=C(N/N=C/c1ccc2c(c1)OCO2)c1cc(-c2ccc(F)cc2)nc2ccccc12
  u, 0%, u, -8.8%, 28%, 0.58µM*, u, 22%
27	C=CCC(CC=C)(CNC(=O)C(=O)Nc1ccc(C(=O)OCC)cc1)c1ccccc1
  6%[46.1 µM], x, x, -1.1%, x, u, 5%, 0%
28	COc1ccc(C(=O)C2CCN(CC(=O)Nc3ccc(OC)cc3OC)CC2)cc1
  u, 0%, -7%, x, -5%, -20%, x, 0%
29	CCCC(=O)Nc1ccc(Cl)c(NC(=O)c2cccc(OC)c2)c1
  0%[46.1 µM], -1%, x, x, -15%, u, x, -5%
30	CCOc1ccc(CC2c3cc(OCC)c(OCC)cc3CCN2C(=O)CN2CCN(C)CC2)cc1OCC (configuration not stated)
  u, 0%, -6%, x, -11%, u, x, 5%
31	Cc1ccc(Cn2ccc(NC(=O)c3cc4nc(-c5ccco5)cc(C(F)(F)F)n4n3)n2)cc1
  2%, 0%, 7%, -1.5%, -7%, 4%, -5%, -21%
32	O=S(=O)(c1ccc(OC(F)(F)F)cc1)N1CCCC(N2CCOCC2)C1 (configuration not stated)
  3%, 0%, -14%, x, 2%, -16%, x, -11%
33	Cc1cccc(CC(=O)Nc2cccc(-c3cn4cccnc4n3)c2)c1
  x, x, x, -8.2%, x, -3%[46.1 µM], u, 18%
34	CC1CCN(CCCCOc2ccccc2[N+](=O)[O-])CC1
  u, 4%, -8%, -2.0%, -8%, -23%, -2%, x
35	CN(C)CCCNc1ncnc2sc(-c3ccccc3)cc12
  x, -1%, -91%, x, 9%, x, x, -14%
36	Cc1cc(C)nc(SCC(=O)NNC(=O)c2cccs2)n1
  17%[46.1 µM], 0%, x, x, 15%, 3%[46.1 µM], x, -19%
37	Cc1cccc(Nc2ccncc2S(N)(=O)=O)c1
  4%[46.1 µM], x, x, x, 3%, -2%, x, 5%
38	COc1cc(OC)c(OC)cc1CN1CCCC(C(=O)N2CCCCC2)C1 (configuration not stated)
  -21%, 1%, -9%, 2.6%, -11%, -16%, -14%, -2%
39	O=C(O)CCc1ccc(-c2ccc(F)cc2)n1CC1CCCO1 (configuration not stated)
  27%, 2%, 10%, -3.3%, -10%, 10%, 8%, 6%
40	CC(OC(=O)c1cccc(S(=O)(=O)N2CCCCC2)c1)C(=O)NC1CCCCC1C (configuration not stated)
  2%, 5%, 16%, x, -6%, 1%, x, 8%
41	Cc1ccc(C)c(NC(=O)C(=O)NCCCN2CCOCC2)c1
  15%&2%[46.1 µM], 1%, 2%, -1.2%, 0%, u, -6%, -6%&-16%
42	Cc1ccc(NS(=O)(=O)c2cccc3cccnc23)cc1Cl
  x, 1%, -1%, x, 6%, x, x, 73%[activator]
43	CC1=C(C(=O)Nc2ccccc2)C(c2ccccc2)N2C(=O)CSC2=N1 (configuration not stated)
  6%, -3%, 9%, -0.9%, -5%, -3%, 0%, -7%
44	O=C(C=C(C(=O)c1ccccc1)c1ccccc1)c1ccccc1
  u, x, x, x, 17%, -19%[46.1 µM], x, 13%
45	CCCOc1ccc(-c2nn(-c3ccccc3)cc2C2NC(=O)NC(C)=C2C(=O)OC)cc1C (configuration not stated)
  -17%[46.1 µM], x, x, -6.3%, x, 6%[46.1 µM], 16%, 14%
46	Cc1cc(NC(=O)C(Cl)(Cl)Cl)no1
  1%, 1%, 1%, x, -17%, u, x, -4%
47	COc1ccccc1NC(=O)CC(=O)CSc1nnc(-c2ccc(C)cc2)n1C
  1%, 1%, u, -5.3%, 17%, 22%, u, 14%
48	CC(C)Cn1c(CN(C)Cc2ccccc2)nc2c1c(=O)n(C)c(=O)n2C
  x, -1%, -13%, -0.7%, -8%, x, 16%, u
49	CCN(CC)S(=O)(=O)c1ccc(O)c(C(=O)OCC(=O)N2CCCC2)c1
  u, -2%, 7%, x, 4%, x, x, 13%
50	Oc1cccc(CCc2ccccn2)c1
  6%, x, x, x, -11%, 12%, x, 14%
51	NC(=O)CC[C@H](NC(=O)[C@H](Cc1ccccc1)n1c(=O)[nH]c2ccccc2c1=O)C(=O)N1CCC[C@H]1C(=O)O
  x, -2%, 10%, x, 1%, x, x, -15%
52	O=C(Cc1ccccc1)Nc1ccc(NC(=O)c2ccccc2)c(Cl)c1
  x, -5%, 20%, x, 22%, x, x, 16%
53	CCc1ccc(CN2CCc3nc(Nc4ccc5c(c4)OCCO5)ncc3C2)cc1
  x, x, x, -7.7%, x, 3%[46.1 µM], -13%, -14%
54	CCOC(=O)c1sc(NC(=O)c2ccccc2F)c(C(N)=O)c1C
  u, 5%, 7%, -6.5%, 2%, 0%, u, -8%
55	CCOC(=O)N1CCC2(CC1)C(C(=O)C13CC4CC(CC(C4)C1)C3)C2(C#N)C#N (configuration not stated)
  u, 6%, u, 2.6%, -5%, -9%, 4%, -15%
56	CCOC(=O)c1c(-c2ccccc2)csc1NC(=O)COc1ccc2c(C)cc(=O)oc2c1
  6%, -5%, 9%, -3.9%, 3%, 8%, 0%, -28%
57	CC1CCCCC1NC(=O)C1CCN(S(=O)(=O)N2CCC3(CC2)OCCO3)CC1 (configuration not stated)
  -3%, -2%, 2%, 4.6%, -1%, 5%, 3%, x
58	CCN1C=C(C(=O)OC)C(c2cccc(OC)c2OC)C(C(=O)OC)=C1
  -5%, -1%, x, x, -2%, -17%, x, 0%
